# A1 inh: inhibitors of the anti-apoptotic protein A1, read as caspase activation; MEF A1-2A-BIM cells, Caspase-Glo 3/7 luminescence, 3 h; percent of clofoctol response, vehicle zero; caspase activation, % (no concentration beside the values); actives 0.066% (n = 330,000); AID 2462;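 active = over half of replicate activation scores above 10%, or exactly half above 10 with the replicate mean above 10; inconclusive = replicate mean below 10 yet half the replicates above 10; inactive = over half of replicates below 10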;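 note: wells of about 30 µL received 50 nL stock; many hits fall short of the cut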
# Ecoli rRNA inh: inhibits bacterial ribosomal RNA function over humanized ribosomes; GFP signal change (wild-type ribosome), % (no concentration beside the values); actives 1.6% (n = 350,000); E. coli WT GFP vs humanized-ribosome RFP mutants, fluorescence, 24 h; hits give low values; DMSO median 0, no signal -100; AID 720706;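 active = significant combined selectivity score with lowered wild-type GFP, culture density cut under 30%, mutant RFP and density less affected; inactive = any of these conditions unmet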; note: one replicate is shown; some compounds called inactive have numbers as strong as hits
# Beta apoptosis: blocks beta cell apoptosis; INS-1E cytokine-induced death, ATP luminescence, 48 h; percent of positive-control rescue, neutral wells zero; protection from apoptosis, % (no concentration beside the values); actives 0.8% (n = 300,000);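 active = all replicates at 75% or more, or half of them and the mean; inconclusive = half reach 75% but not the mean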;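 note: 0% = cytokine-treated negative control wells and 100% = positive control rescue; higher means more ATP so stronger rescue from cytokine killing; wells of about 40 µL received 100 nL stock; the first replicate is given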
# Beta2AR agonist: human beta-2 adrenergic receptor agonism by FAP. P07550. Am2.2-beta2AR cells, FAP receptor internalization, flow cytometry; reference of the scale not given here. response, % (test concentration not listed). actives 0.43% (n = 340,000). AID 504454;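 active = response above a set limit, near 3 SD of response in nonfluorescent compounds, cut at about 42% in these data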;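 note: stock transfer was 100 nL into about 11 µL; a reference agonist was the positive control; negative values mostly stem from fluorescent compounds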
# ALR H2O2 inh: inhibitors of human sulfhydryl oxidase ALR | P55789 | purified ALR, DTT oxidation, H2O2 HRP-luminol luminescence | inhibition, % (no concentration beside the values) | actives 3.8% (n = 290,000) | AID 485317;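 active = mean and each replicate at 75% or more; inconclusive = only one of the two met; inactive = neither met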;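 note: stock transfer was 7.5 nL into about 7.5 µL; 0% = neutral wells and 100% = wells with inactivated enzyme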
# LANA-H2B inh: blocks KSHV LANA binding to histone H2A/H2B | cell-free LANA-H2A/H2B peptide, fluorescence polarization | inhibition, % (test concentration not listed) | actives 0.6% (n = 320,000); in the data active = inhibition mostly above about 10%, no sharp cut-off; inactive = mostly below about 6.7%;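 note: stock transfer was 7.5 nL into about 10 µL; 0% = median of vehicle wells and 100% = median of positive control wells; one replicate is shown; the record names a cut of 25% in any replicate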
# Target sequence (Q9QR71 whole entry, looked up): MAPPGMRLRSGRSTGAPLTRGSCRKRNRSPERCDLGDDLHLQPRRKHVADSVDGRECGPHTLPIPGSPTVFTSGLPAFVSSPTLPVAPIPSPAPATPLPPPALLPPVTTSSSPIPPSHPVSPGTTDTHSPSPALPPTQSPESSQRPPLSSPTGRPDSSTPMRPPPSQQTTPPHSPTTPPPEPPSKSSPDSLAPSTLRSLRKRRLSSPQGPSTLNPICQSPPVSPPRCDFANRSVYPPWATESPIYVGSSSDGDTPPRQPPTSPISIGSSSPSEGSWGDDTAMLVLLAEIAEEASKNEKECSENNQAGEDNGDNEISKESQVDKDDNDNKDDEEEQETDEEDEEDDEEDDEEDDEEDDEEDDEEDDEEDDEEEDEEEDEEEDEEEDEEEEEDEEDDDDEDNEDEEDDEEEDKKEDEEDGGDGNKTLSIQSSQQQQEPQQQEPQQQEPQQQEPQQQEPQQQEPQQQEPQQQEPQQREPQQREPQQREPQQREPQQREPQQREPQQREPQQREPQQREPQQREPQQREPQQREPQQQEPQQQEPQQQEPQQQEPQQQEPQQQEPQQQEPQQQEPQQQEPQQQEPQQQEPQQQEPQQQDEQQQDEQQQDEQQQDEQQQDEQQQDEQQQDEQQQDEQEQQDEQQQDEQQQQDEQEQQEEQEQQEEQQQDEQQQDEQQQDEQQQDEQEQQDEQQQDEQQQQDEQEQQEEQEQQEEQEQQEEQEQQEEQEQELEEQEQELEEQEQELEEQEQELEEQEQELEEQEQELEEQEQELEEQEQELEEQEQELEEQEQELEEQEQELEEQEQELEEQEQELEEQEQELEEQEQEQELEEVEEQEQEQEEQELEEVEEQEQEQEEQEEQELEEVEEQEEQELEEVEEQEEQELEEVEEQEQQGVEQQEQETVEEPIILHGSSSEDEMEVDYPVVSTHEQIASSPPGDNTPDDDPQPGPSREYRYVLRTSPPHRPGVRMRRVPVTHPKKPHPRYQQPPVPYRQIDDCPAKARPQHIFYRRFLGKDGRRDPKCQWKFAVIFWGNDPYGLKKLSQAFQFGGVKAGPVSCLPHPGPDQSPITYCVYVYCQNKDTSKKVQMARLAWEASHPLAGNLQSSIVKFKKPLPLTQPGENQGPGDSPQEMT
# Calb FLC: affects C. albicans growth with fluconazole; actives 0.57% (n = 300,000); growth inhibition, % (test concentration not listed); C. albicans CaCi-2 (fluconazole-resistant clinical isolate) + fluconazole, Alamar Blue growth, 48 h;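 active = most replicates above 75%; inconclusive = exactly half above 75%; inactive = most below 75%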;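 note: all wells also contain fluconazole at 8 µg/ml as a sub-toxic cotreatment; 0% = median of DMSO wells and 100% = median of geldanamycin control wells; wells of about 8 µL received 7.5 nL stock; the first replicate is given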
# T cruzi repl: blocks replication of Trypanosoma cruzi; T. cruzi beta-gal in NIH3T3, luminescence, 90 h; actives 1.4% (n = 300,000); inhibition, % (concentration not given with the values);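 active = mean inhibition across valid replicates above about 55%, limit read from the data; inconclusive = mean below that limit but half or more replicates reach it; inactive = mean below it, under half of replicates reach it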;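 note: signal also drops with host cell toxicity which is not excluded here; 0% = plate median of DMSO wells and 100% = zero luminescence signal; higher percent means less beta-gal luminescence so fewer parasites; stock transfer was 50 nL into about 50 µL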
# Ecoli rRNA inh OD600: second read-out of Ecoli rRNA inh, no call of its own (marks repeat the call); OD600 change, %; measured here: OD600 growth;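 optical density of the mix in the first replicate; 0 = DMSO median and -100 = no signal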
# Ecoli rRNA inh RFP: also measured in Ecoli rRNA inh; calls as there; RFP signal change, %; measured here: RFP humanized mutant strains;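 first replicate; 0 = DMSO median and -100 = no signal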
# * marks the source's active call; other numbers are inactive results; ? = inconclusive; / = no result given. The list is partial; count on the stated rates, not on these rows.
SMILES,A1 inh,Ecoli rRNA inh,Ecoli rRNA inh OD600,Ecoli rRNA inh RFP,Beta apoptosis,Beta2AR agonist,ALR H2O2 inh,LANA-H2B inh,Calb FLC,T cruzi repl
COC(=O)c1c(NC(C)=O)sc(Cc2ccccc2)c1C,-0.9,/,/,/,-8,3,-8,-2.6,1,4
O=C(Nc1nc2ccc([N+](=O)[O-])cc2s1)c1ccc(S(=O)(=O)N2CCCc3ccccc32)cc1,0.2,/,/,/,113*,13,-9,2.5,-6,74*
COc1ccc(S(=O)(=O)N2CCCCC2)cc1NC(=O)c1ccco1,0.7,2,2,-0.5,2,-6,-10,-0.9,-18,9
C/C(N)=C(/C#N)C(=O)CSc1nc2scc(-c3ccc(F)cc3)c2c(=O)n1C,-1.6,14,8,1.8,3,-1,-10,8.1,60,1
O=C(Nc1ccc(Br)cc1)c1ccc(N2C(=O)C3CC=CCC3C2=O)cc1 (stereo unspecified),0.8,/,/,/,10,0,-21,1.7,5,-2
COC(=O)c1c(NC(=O)C(=O)NCC2CCCO2)sc2c1CC(C)(C)OC2 (stereo unspecified),-0.4,-9,-9,-3.5,-3,-4,21,-15,9,16
O=C(NC(=S)Nc1cccc([N+](=O)[O-])c1)c1ccccc1,-1.3,23,7,-1.0,11,-5,-2,3.0,31,4
CC(C)C(=O)NC(NC(=O)C(C)C)c1ccc([N+](=O)[O-])cc1,1.0,2,10,-3.3,-7,9,-2,0.3,-2,-3
O=C(CNCCCO)Nc1cc(C(F)(F)F)cc(NC(=O)CNCCCO)c1Cl,0.7,12,15,0.1,-1,2,7,-2.6,-2,-5
COc1ccc(C(=O)N(C(C)C)C(C)C)c(OC)c1,0.1,/,/,/,-11,4,-5,-7.7,0,-8
Cc1nc(SCC(=O)c2c(N)n(C3CC3)c(=O)[nH]c2=O)[nH]c(=O)c1CCO,0.5,9,15,3.9,1,0,36,-8.6,/,/
O=C(/C=C/c1cccc(Oc2ccccc2)c1)N1CCOCC1,-2.6,-24,-23,-4.1,-1,-11,-5,0.7,52,4
CCc1cc2c(NC(Cc3ccccc3)C(=O)O)nc(C)nc2s1 (stereo unspecified),0.2,-5,-4,1.0,-7,0,3,-2.7,4,1
O=C(O)C(Cc1ccccc1)N1CCS(=O)(=O)CC1 (stereo unspecified),0.1,4,0,-1.1,-2,3,-12,-5.5,-6,-20
CC/C(=N/Nc1cccc(Cl)c1)c1cnnc(SC)n1,0.3,/,/,/,-5,17,-29,-1.7,-1,27
Cc1cc(C(=O)Nc2cc(C(F)(F)F)ccc2N2CCOCC2)no1,1.2,7,3,-1.3,2,-6,0,3.2,-27,13
CC(=O)NC1(c2cccc(F)c2)CCN(C(=O)Nc2ccc(C#N)cc2)CC1,1.5,/,/,/,-13,1,6,1.1,-6,-2
O=C(COc1ccc(F)cc1)Nc1cc(Cl)ccc1-n1cncn1,-0.7,8,5,-0.1,1,7,7,-45,-3,-10
COc1ccc(Cl)cc1NC(=O)C(C)Sc1nncn1C (stereo unspecified),0.0,/,/,/,0,3,-12,1.0,9,-16
CC1(C)CC(=O)C=C(c2ccc(F)cc2OCc2ccccc2)C1,-0.4,-17,-21,-2.5,-5,-7,-1,0.3,/,/
Cc1sc2nc(CSCC(=O)NC3CCCCC3)[nH]c(=O)c2c1C,-0.4,8,12,2.1,-4,6,36,-7.1,/,-12
COCCN1C(=O)c2oc3cc(C)c(C)cc3c(=O)c2C1c1ccc(O)cc1 (stereo unspecified),0.4,/,/,/,-6,0,29,4.6,14,3
CCCCn1c(N)c(N(CCOC)C(=O)c2cccc(S(=O)(=O)N(CC)c3ccccc3)c2)c(=O)[nH]c1=O,1.0,6,3,0.1,-4,-1,-35,1.0,5,-11
COC(=O)c1ccc(NCC(=O)c2ccccc2)cc1,-9.6,/,/,/,-5,5,-3,2.3,-3,-15
CS(=O)(=O)N1CCc2cc(-c3csc(NCC4CCCO4)n3)ccc21 (stereo unspecified),0.2,/,/,/,-2,-6,3,-0.8,-1,7
Cc1ccc(NC(=O)NC2CCCCC2)cc1Cl,0.0,/,/,/,2,0,-2,-1.4,/,/
COc1ccc(Cl)cc1NC(=O)CSc1nc2sccc2c(=O)[nH]1,1.3,-1,3,0.1,-6,-1,2,2.0,-2,-8
O=C(CCNS(=O)(=O)c1cccc2nsnc12)NCc1ccccc1,0.1,4,6,-0.1,1,2,-17,5.1,-5,-3
CC(COc1cccc2ccccc12)CN1CCN(C)CC1 (stereo unspecified),-0.3,/,/,/,9,29,-33,-0.7,-5,66*
Cc1ccc(NC(=O)CCNS(=O)(=O)c2ccc3c(c2)c(=O)n(C)c(=O)n3C)cc1C,-1.0,18,18,1.2,-7,6,/,3.5,-26,-3
CCOC(=O)/C(C#N)=C1/C=CN(C)C=N1,0.2,/,/,/,-8,1,0,-4.9,-3,-16
O=C(NCc1ccccc1Cl)C1CCCN1C(=O)NC1CCCCC1 (stereo unspecified),-4.0,7,6,0.5,-5,0,-7,0.0,-4,6
CCOc1cnc(-c2ccc(Cl)cc2)o1,-3.4,/,/,/,-9,-6,-11,2.3,-8,1
COc1ccc(OC)c(NC(=O)C2CCN(S(=O)(=O)c3ccc4c(c3)OCCO4)CC2)c1,1.0,3,6,0.4,3,-5,-4,-2.5,3,-7
O=C(c1ccco1)N1CCN(Cc2cc(=O)c(OCc3ccc([N+](=O)[O-])cc3)co2)CC1,-0.6,-8,-2,-2.9,/,-4,-10,-1.2,2,5
N#Cc1ccccc1Sc1ccccc1C(=O)Nc1ccc(Br)cc1,-0.9,-21,-18,-13,-3,0,1,-8.7,-40,28
Cc1ccccc1CSc1ncc(C#N)c(N)n1,-0.4,/,/,/,-8,-8,2,2.7,-16,-5
O=C(N/C(=C\c1cn(-c2ccccc2)nc1-c1ccc(Cl)cc1)C(=O)N1CCOCC1)c1ccccc1,0.3,-8,-16,-3.2,6,/,-7,0.0,2,-2
COc1ccc(N2C(=O)CC(N(Cc3ccco3)C(=O)CCC(=O)O)C2=O)cc1 (stereo unspecified),-0.6,9,2,-0.8,-3,6,-14,-2.7,34,-1
COc1cccc(OC)c1C(=O)Nc1ccc([N+](=O)[O-])cn1,-0.7,/,/,/,-2,0,2,0.5,-4,-10
O=[N+]([O-])c1ccc(OCCO)c(P(=O)(c2ccccc2)c2ccccc2)c1,-0.1,2,-12,1.5,0,1,-7,2.4,-5,5
COC(=O)CSc1nc(N)c(C#N)c(-c2ccco2)c1C#N,-1.6,/,/,/,2,16,/,1.9,8,/
Cc1sc2ncnc(NS(=O)(=O)c3ccc(Cl)cc3)c2c1C,1.1,6,-11,-2.9,13,-2,13,3.6,/,/
COc1ccccc1/C=N/Nc1nc(C)cc(C)n1,-2.2,10,10,5.4,6,-4,8,-4.9,3,-5
Cc1cc(NC(=O)CSc2nnc(C3CC3)n2N)no1,0.9,3,11,0.2,-1,-1,-1,0.8,4,2
c1ccc2cc(-c3csnn3)ccc2c1,-1.4,/,/,/,0,-5,-39,-1.3,-12,0
CC(=O)Nc1ccc(NC(=O)CN(C)S(=O)(=O)c2ccc3ccccc3c2)cc1,1.0,5,12,3.1,-1,3,-5,-11,-6,-12
CC1(C)O[C@@H]2[C@H](O1)[C@@H](CO)O[C@H]2n1cnc2c(=O)[nH]cnc21,-1.1,0,6,-3.8,-5,-4,-15,0.8,/,/
Cc1ccc([N+](=O)[O-])cc1NC(=S)NC(=O)c1cccnc1,0.0,16,19,-0.7,-3,-6,-3,-4.2,-20,-13
COc1cc(NS(=O)(=O)c2cc3c(cc2C)NC(=O)CO3)cc(OC)c1,0.1,1,-15,-3.6,5,4,/,-4.0,-6,6
CCOc1ccc(CC(=O)N/N=C/c2cccnc2)cc1OCC,0.5,3,2,-2.0,-6,-1,-4,-1.0,2,-3
CC1CN(C(=O)CS(=O)(=O)Cc2ccccc2)CC(C)O1 (stereo unspecified),-0.5,10,16,-0.6,-7,11,-12,9.7,7,-5
CCN(CC)CCn1c(=N)n(CC(O)COc2cccc(C)c2)c2ccccc21 (stereo unspecified),-0.1,-9,-16,2.5,24,31,-18,5.3,-23,50
COC(=O)c1ccc2c(c1)sc(=NC(=O)CCS(=O)(=O)c1ccccc1)n2C,1.4,8,4,0.7,/,8,0,0.1,41,9
Cc1cc(C)n(CC(=O)Nc2ccc([N+](=O)[O-])cc2)n1,-0.8,11,12,-1.1,1,4,-22,-2.9,-6,-5
O=C(CCCCCN1C(=O)c2cccc([N+](=O)[O-])c2C1=O)Nc1ccccc1F,0.5,6,1,2.6,-1,-6,-15,-9.4,-9,-2
CCC(=O)Nc1c(-c2ccccc2)c(=O)c2ccccc2n1C,-0.1,5,2,-0.1,-6,-12,-11,-1.6,6,-11
COc1ccc(-n2c(=S)[nH]c3ccccc32)cc1,-0.3,/,/,/,-4,5,/,-4.1,?,-19
COc1ccc(C(=O)OC(C)C(=O)NC(C)CCc2ccccc2)cc1OC (stereo unspecified),0.5,1,-10,-0.2,-5,-8,0,3.8,4,3
CCc1ccccc1OCC(=O)NNCC(=O)Nc1cccc(C#N)c1,0.2,-20*,-12*,3.0*,-9,-4,0,-1.2,/,/
# Next part
SMILES,A1 inh,Ecoli rRNA inh,Ecoli rRNA inh OD600,Ecoli rRNA inh RFP,Beta apoptosis,Beta2AR agonist,ALR H2O2 inh,LANA-H2B inh,Calb FLC,T cruzi repl
COC(=O)c1ccccc1NS(=O)(=O)c1ccc(O)c(C(=O)O)c1,0.9,6,-1,-5.2,1,-12,5,-1.4,2,-13
O=C(CCc1ccccc1Cl)Nc1cc2c(cc1C(=O)O)OCCCO2,-0.8,6,10,-3.7,-3,7,/,-6.8,/,/
CCOc1ccc(NC(=S)NNC(=O)c2cc(Br)ccc2Cl)cc1,1.6,-15,-1,4.5,/,-1,?,-2.4,?,15
O=C(CSc1nc(=O)n2ccccc2n1)N1CCC(Cc2ccccc2)CC1,0.6,-3,-18,-1.4,/,-2,17,-0.3,11,13
Cc1ccc(-c2nc(CS(=O)(=O)CC(=O)NC3CCCCCC3)c(C)o2)cc1,0.2,8,6,1.2,-3,-1,-1,-0.4,5,7
N#C/C(C(=O)N1CCOCC1)=C1/SC(Cc2ccccc2)C(=O)N1c1ccccc1 (stereo unspecified),0.5,/,/,/,1,-4,14,1.3,-2,-10
CC(C)c1nnc(NC(=O)C2CCCN2S(=O)(=O)c2ccc(Cl)cc2)s1 (stereo unspecified),0.5,/,/,/,5,-8,-7,-3.9,2,-11
COc1ccc(CCNC(=O)c2noc(C)c2[N+](=O)[O-])cc1OC,0.0,5,14,-0.6,-2,-3,/,-0.9,-2,12
CCN(CCC(=O)O)c1ccccc1,-1.3,/,/,/,-7,-4,/,-1.1,-3,-9
COC(=O)c1cccc(S(=O)(=O)N(Cc2ccco2)Cc2cc3cc(OC)ccc3[nH]c2=O)c1,-0.7,/,/,/,-1,17,-4,-3.1,7,19

# Source: PubChem BioAssay (several laboratories)
